Bioassay records (PubChem)
Hsc70 = Hsc70 inhibitors, probe displacement, primary screen, biochemical, fluorescence polarization (AID 568); Heat shock cognate 71 kDa protein (Homo sapiens); Hsc70 fluorescence polarization, probe displacement; higher % means a stronger effect; strong numbers were not always called active; displacement, % at 20 µM; hits with a dose series show IC50 in µM; 83,000 tested, under 10 active;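 active = displacement above 50% without optical interference and an IC50 on retest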;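 also: ATPase domain with a fluorescein-tagged ATP probe; 0% = vehicle and 100% = excess ADP; read after one hour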
WNV NS2B-NS3 inh = inhibitors of WNV NS2B-NS3 protease, primary screen, biochemical, fluorogenic substrate | fluorogenic substrate Ex360/Em465; stronger effect = lower value | z-score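 (tested at a level between 10 and 100 µM)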 | 65,000 tested, 0.18% active;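 active = z-score at -3 or under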;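 also: score is relative to mean and spread of the compound wells of a plate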
Target sequence (P06935 1371-1501 limits assumed): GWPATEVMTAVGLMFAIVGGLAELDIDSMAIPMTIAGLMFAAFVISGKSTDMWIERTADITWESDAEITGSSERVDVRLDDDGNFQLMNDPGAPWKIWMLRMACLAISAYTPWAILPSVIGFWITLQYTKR
Target sequence (P06935 1502-1679 limits assumed): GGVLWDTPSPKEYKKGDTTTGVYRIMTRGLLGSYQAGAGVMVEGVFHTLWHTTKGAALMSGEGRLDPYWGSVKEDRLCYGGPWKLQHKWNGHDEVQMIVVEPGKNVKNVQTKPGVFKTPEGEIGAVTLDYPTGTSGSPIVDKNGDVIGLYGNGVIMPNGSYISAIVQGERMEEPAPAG
MT1-MMP promoter = inhibitors of MT1-MMP promoter transcription, cell-based, luciferase reporter, luminescence (AID 618). MT1-MMP promoter luciferase reporter cells, luminescence. calls from a first round at 10 µM; hits with a dose series show EC50 in µM. 87,000 tested, 0.62% active;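 active = over half of the reporter light lost at 10 µM or EC50 under 50 µM; inactive = the rest and hits that failed the dose series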;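 also: actives suppress MT1-MMP promoter-driven transcription so potencies describe inhibitors; HT1080 fibrosarcoma cells; overnight exposure; toxic or luciferase-blocking compounds were not removed from the actives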
Starred values were filed as active, the others as inactive; i = inactive; · = not tested or not shown; + = active, no number.

Molecule | WNV NS2B-NS3 inh | MT1-MMP promoter | Hsc70
CCc1nc(N)c(C#N)c(-c2ccncc2)c1C | -0.12 | i | 1.9%
Cc1cc(C)c(C#N)c(N2CCN(Cc3ccc4c(c3)OCO4)CC2)n1 | 0.85 | i | 17%
Cn1c(=O)c2[nH]c(-c3cccnc3)nc2n(C)c1=O | -0.75 | i | -3.3%
CCn1c(=NC(=O)CN2C(=O)CCC2=O)sc2c(C)cc(C)cc21 | -0.04 | i | 1.3%
COc1ccc(Cl)cc1NC(=O)CCn1cnc2ccccc2c1=O | -1.4 | i | -1.1%
Cc1ccccc1OCC(=O)Nc1cccc(NC(=O)c2ccco2)c1 | 1.9 | i | -3.6%
O=C(NCc1ccc2c(c1)OCO2)c1c[nH]c2ccc(S(=O)(=O)N3CCOCC3)cc2c1=O | 1.5 | i | -4.2%
COc1ccc2cc(C(=O)NC3CCCCC3)c(=O)oc2c1 | 0.2 | i | -1.7%
Cc1nn(-c2ccccc2)c2[nH]c(=O)c(CNCc3ccc4c(c3)OCO4)cc12 | 0.71 | i | 2.9%
CCCc1[nH]n(-c2nc3ccccc3s2)c(=O)c1C=NCCN1CCOCC1 | 0.31 | i | 5.8%

A draw from above in order of number of heavy atoms, falling.
Molecule | WNV NS2B-NS3 inh | MT1-MMP promoter | Hsc70
CCCc1[nH]n(-c2nc3ccccc3s2)c(=O)c1C=NCCN1CCOCC1 | 0.31 | i | 5.8%
Cc1ccccc1OCC(=O)Nc1cccc(NC(=O)c2ccco2)c1 | 1.9 | i | -3.6%
CCn1c(=NC(=O)CN2C(=O)CCC2=O)sc2c(C)cc(C)cc21 | -0.04 | i | 1.3%

Remaining list, next part.
Molecule | WNV NS2B-NS3 inh | MT1-MMP promoter | Hsc70
O=C(CCC1CC(=O)Nc2ccccc21)NCc1ccccc1 (centres undefined) | · | i | -5.6%
COc1cccc(CNc2nc3nc(C)cc(C)n3n2)c1 | 2.9 | i | 3.5%
Cc1ccc(NCc2nnc(SCC(=O)N3CCCCC3)n2CC2CCCO2)c(C)c1 (centres undefined) | 0.04 | i | 6.2%
Cc1nc2c(C(=O)NCc3ccc4c(c3)OCO4)c[nH]n2c(=O)c1Cl | 0.69 | i | -0.5%
CCOC(=O)C(C)Oc1nc(Oc2ccccc2)nc(N(C)C)n1 (centres undefined) | -0.07 | i | 3.8%
O=C(CSc1nccc(=O)[nH]1)N1CCc2ccccc2C1 | · | i | -3.8%
Cc1ccc(C2Oc3ccccc3C3=C2C(c2cccs2)n2ncnc2N3)cc1 (centres undefined) | · | i | -0.7%
O=C(NCCN=C1NS(=O)(=O)c2ccccc21)c1ccc2nccnc2c1 | -0.25 | i | -4.1%
CCCC(c1nnnn1CCc1ccccc1)N1CCN(C(=O)c2ccco2)CC1 (centres undefined) | -0.75 | i | 3.8%
CC1(C)CC(=O)C(CC2=C(O)CC(C)(C)CC2=O)=C(O)C1 | 0.03 | i | 3.2%
CCOC(=O)N1CCN(C(=O)c2ccc(CN(c3ccccc3)S(C)(=O)=O)cc2)CC1 | -0.41 | i | 0.8%
Cc1cc(C(=O)CSc2nnnn2C)c(C)n1-c1ccc2c(c1)OCCO2 | -1 | i | -3.1%
CCOC(=O)N1CCN(c2c(-c3ccc(C)c(C)c3)c(=O)c2=O)CC1 | 1.3 | i | -3.3%
CCOC(=O)C(C#N)C(c1cccnc1)c1c(C)[nH][nH]c1=O (centres undefined) | 0.27 | i | -1.1%
CCc1cc(=O)oc2c(C)c(O)c(CN3CCCCC3)cc12 | 7.8 | i | -4.8%
COc1ccc2nc(SCC(=O)N(C)C3CCCCC3)c(C#N)cc2c1 | 0.7 | i | -2.7%
CCCC(=O)Nc1cc(OCC)c(NC(=O)NC2CCCCC2)cc1OCC | 0.88 | i | 4.1%
O=C1OC2(c3ccccc3)C3CCCC2C13 | 0.8 | i | -4.1%
COc1cc(-c2nc3ccccc3s2)ccc1O | · | i | 3.2%
c1ccc(C(c2nnnn2Cc2ccco2)N2CCN(C3CCCC3)CC2)cc1 (centres undefined) | -0.2 | i | 4.1%

Record cards, from the list above. Order of screens: WNV NS2B-NS3 inh | MT1-MMP promoter | Hsc70
Record of CCCC(=O)Nc1cc(OCC)c(NC(=O)NC2CCCCC2)cc1OCC : 0.88 | i | 4.1%
Record of COc1cc(-c2nc3ccccc3s2)ccc1O : · | i | 3.2%

(list continues)
Molecule | WNV NS2B-NS3 inh | MT1-MMP promoter | Hsc70
O=C(NCC(F)(F)F)Nc1cccnc1 | -0.93 | i | -0.5%
CCOc1ccc(N(CC(=O)N2CCc3ccccc32)S(=O)(=O)c2c(C)noc2C)cc1 | -0.27 | i | 3.9%
COc1ccc(N(CC(=O)NCc2ccco2)S(C)(=O)=O)cc1OC | · | i | 6.1%
CCSc1ccccc1C(=O)Nc1cccnc1 | -0.42 | i | -3.0%
CCCCn1c(=O)n(C)c(=O)c2c3c(sc21)COC(C)(C)C3 | 0.59 | i | 7.9%
Cc1noc(NS(=O)(=O)c2ccc(NC(=O)COc3ccc(Cl)cc3Cl)cc2)c1C | 0.99 | i | 6.1%
CCOC(=O)c1csc(NC(=O)c2ccccc2)n1 | -2.6 | i | -1.0%
COC(=O)c1ccccc1S(=O)(=O)NC(=O)c1ccccc1 | 0.55 | i | 1.8%
COc1ccc(N2C(=O)CC(N3CCC(c4nc5ccccc5[nH]4)CC3)C2=O)cc1 (centres undefined) | · | i | -4.3%
CC1CCN(C(=O)CSc2ccc3nnc(-c4ccc(F)cc4)n3n2)CC1 | -0.37 | i | 0.0%
C(#Cc1ccccc1)Cn1nnc2ccccc21 | 0.47 | i | 1.4%
CCCCN(C)Cc1c(C)[nH]c2ccc(Cl)cc2c1=O | -0.37 | i | 7.0%
Cn1c(Cn2c(=O)sc3ccccc32)nnc1SCC(=O)NCCc1ccccc1 | -0.1 | i | 0.9%
Cc1cc(NC(=O)c2cc(-c3cccs3)on2)nn1Cc1ccc(Cl)cc1 | 1.7 | i | -11%
COc1ccc2cc(CN(CC3CCCO3)S(=O)(=O)c3ccccc3Cl)c(=O)[nH]c2c1 (centres undefined) | · | i | 4.7%
Cc1cccc(Cn2c(SCCO)nc3c2c(=O)n(C)c(=O)n3C)c1 | 0.22 | i | 1.8%
COc1ccc(O)c(-c2cc(C(F)(F)C(F)F)nc(-c3ccccc3)n2)c1 | · | i | 3.7%
COc1ccc(-c2cc(C(=O)Nc3c(C)nn(Cc4ccccc4Cl)c3C)no2)cc1OC | 1.2 | i | -0.5%
Cc1onc(-c2ccccc2Cl)c1C(=O)Nc1ccccc1C(N)=O | 2.6 | i | 6.1%
c1ccc(N2CCN(Cc3ccnc4ccccc34)CC2)cc1 | -0.95 | i | 2.2%
O=C(NCCN1CCOCC1)c1ccc2ccccc2n1 | · | i | -0.4%
O=S(=O)(Nc1cccc2ncccc12)c1cccs1 | 2.5 | + | 6.1%
O=c1c2cnn(-c3ccccc3)c2ncn1/N=C/c1ccncc1 | -0.93 | i | 2.4%
CC1CCCC(NC(=O)Cc2ccc(Br)cc2)C1C (centres undefined) | · | i | -2.2%
CSC1=C(C#N)C(c2ccc(C(C)C)cc2)CC(=O)N1 (centres undefined) | 2 | i | 0.9%
O=C(Nc1ccc(N2CCCC2)c(Cl)c1)c1ccc(Br)o1 | -0.35 | i | -9.1%
C=C(C)CSc1nc2ncccc2[nH]1 | 0.56 | i | -3.2%
O=C(Nc1cnc2ccccc2c1)c1cccnc1 | -0.62 | i | 1.9%
Cc1cc(C)nc(Nc2n[nH]c(COc3ccccc3)n2)n1 | 0.31 | i | -3.0%
CCc1ccc(C(=O)COC(=O)CNC(=O)c2cccs2)cc1 | · | i | 0.5%
Cn1c(CN2CCCC2)nc2cc(NS(=O)(=O)c3ccccc3)ccc21 | -0.43 | i | 0.0%
CN(C)CCCC(=O)c1ccc2c(c1)OCO2 | · | i | 0.7%
C=CCOc1ccccc1/C=c1\sc2nc(-c3oc4ccccc4c3C)nn2c1=O | -0.87 | i | -13%
Cc1cc(C)c2c(n1)nn1c(C)c(CCC(=O)NCc3ccco3)c(C)nc21 | 1.1 | i | -0.9%
Cc1ccc(C)c(N2CCN(C(=O)c3ccc(Cn4c(=O)[nH]c5ccccc5c4=O)cc3)CC2)c1 | -0.42 | i | -8.4%
O=c1cc(O)c(-c2ccccc2Cl)c(Cl)[nH]1 | · | i | 6.3%
Nc1cccc2cnccc12 | 1 | i | 2.3%
Cc1ccc(C)c(N2C(=O)CC(N3CCN(Cc4ccc5c(c4)OCO5)CC3)C2=O)c1 (centres undefined) | -0.31 | i | -5.7%
Cc1ccc(S(=O)(=O)N/N=C2/CC(c3ccccc3)Oc3ccccc32)cc1 (centres undefined) | · | i | 1.7%
COc1ccc(OC)c(N(CC(=O)NCCSc2ccccc2)S(C)(=O)=O)c1 | 0.38 | i | 2.9%
Cc1cc(=O)c2n(Cc3ccc(Cl)cc3)nc[n+]2[nH]1 | 1.1 | i | -5.4%
Clc1ccc(C2=CSC3=Nc4cccc5cccc(c45)N23)cc1 | · | i | 4.2%
CN(C)c1ccc(CNC23CN4CN(CN(C4)C2)C3)cc1 | -1.4 | i | 5.1%
COc1ccccc1CN(Cc1nc2ccccc2c(=O)[nH]1)C(=O)Nc1cccc(C)c1 | · | i | 4.6%
O=C(O)CC1CCS(=O)(=O)C1 (centres undefined) | 0.04 | i | 1.9%
Cc1noc(C)c1C(=O)N1CC(C)OC(C)C1 (centres undefined) | · | i | 4.0%
Nc1nc2n(n1)C(c1cccc(Br)c1)CC(c1ccc(F)cc1)N2 (centres undefined) | -0.44 | i | -0.1%
CCOC(=O)N(C)OC(=O)Nc1ccc(Cl)c(Cl)c1 | -0.67 | i | -0.3%
CCCNCc1cc(OC)c(OCCC)cc1Cl | · | i | 0.1%
Cc1ccc(-c2nc3ccccc3c(=O)n2CCN2CCOCC2)cc1 | -0.02 | i | -10%

(list continues)
Molecule | WNV NS2B-NS3 inh | MT1-MMP promoter | Hsc70
CN1CCCCc2c1nc1ccccc1c2N (tested in a mixture with another compound) | 0.45 | i | 0.0%
Cc1nn(C)cc1/C=N/O | -0.02 | i | 8.3%
NC(=O)c1ncc(C(F)(F)F)cc1Oc1ccc(C(F)(F)F)cc1 | · | i | 2.5%
CCOc1ccc(S(=O)(=O)NCc2ccc(Cl)cc2)c2cccnc12 | · | i | -3.3%
Clc1ccc(C2=C3CCCCn4c(-c5ccccc5)c[n+](c43)C2)cc1 | · | i | -2.4%
CCCNC(=O)c1nc2ncc(Br)cn2n1 | 0.58 | i | -10%
Cn1c(=O)c2c(nc(N3CCNCC3)n2Cc2cccc3ccccc23)n(C)c1=O | -0.26 | i | 4.1%
O=C(O)c1ccccc1OCCOc1ccccc1C(=O)O | -0.91 | i | -6.2%
COc1ccc(-c2noc(-c3ccc(C)cc3)n2)cc1 | · | i | 1.3%
O=C(O)CCN1Cc2ccccc2C1=O | -1.8 | i | -4.2%
COc1ccc(NC(=O)CCN2CCN(S(=O)(=O)c3cc(Cl)ccc3OC)CC2)cc1 | -1.8 | i | 4.7%
O=C(c1ccc(N2C(=O)CCC2=O)cc1)N1CCN(c2ccccc2)CC1 | -2.6 | i | -4.8%
O=C(C1CCN(S(=O)(=O)c2ccc(Cl)cc2)CC1)N1CCOCC1 | · | i | 2.4%
CC(=O)SC(C)CC(=O)Nc1ccccc1 (centres undefined) | -0.49 | i | -2.6%
O=C(CN1CCN(C(c2ccccc2)c2ccccc2)CC1)NC(=O)NCc1ccco1 | -0.73 | i | -3.1%
CCOC(=O)C1CCN(C(=O)C2CCN(S(=O)(=O)CC)CC2)CC1 | -0.07 | i | -7.4%
COc1ccc(-c2nnc(SCC(=O)N3CCN(c4ccccc4)CC3)o2)cc1OC | 0.48 | i | 0.2%
CC(=O)Nc1cccc(Cl)c1C(=O)O | -0.83 | i | 3.8%
COc1ccc(-n2cnnc2SCC(=O)Nc2nc(C)c(Cl)cc2Cl)cc1 | · | i | -0.2%
CCN(CC)C(=O)CSc1nc(-c2cccs2)cc(-c2cccs2)c1C#N | · | i | -6.1%
O=C(Nc1ccc2nc(-c3cccs3)c(-c3cccs3)nc2c1)NC1CC1 | · | i | 0.7%
COc1ccc(CN2CCNC(=O)C2CC(=O)O)c(OC)c1 (centres undefined) | -0.12 | i | 5.8%
O=C(CN1CCN(c2ccccn2)CC1)NCCc1ccccc1 | -1.1 | i | -2.3%
CC(C)COC(=O)n1c(=O)oc2cc(S(=O)(=O)N3CCCCC3)ccc21 | -0.94 | i | 2.9%
CCc1nnc(NC(=O)CSc2nnc(CSc3nc(C)cc(C)n3)o2)s1 | -0.22 | i | -3.2%
Cc1cc2oc3c(c(=O)c2cc1C)C(c1ccc(F)cc1)N(CCCN1CCOCC1)C3=O (centres undefined) | -0.52 | i | 0.0%
CCCOC(=O)C1=C(C)NC2=C(C(=O)CC(C)(C)C2)C1c1ccc(N(C)C)cc1 (centres undefined) | 1.5 | i | -0.8%
Cc1cccc(N2CCN(C(=O)C3CCN(S(=O)(=O)c4cccc5nsnc45)CC3)CC2C)c1 (centres undefined) | -0.85 | i | -0.2%

An unsorted share of the library. About 0.87% of those tested had a hit in this group.
